Screening results (PubChem)
A1 inh – inhibitors of the anti-apoptotic protein A1, read as caspase activation | MEF A1-2A-BIM cells, Caspase-Glo 3/7 luminescence, 3 h; percent of clofoctol response, vehicle zero | caspase activation, % (test concentration not listed) | actives 0.066% (n = 330,000) | AID 2462;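 active = over half of replicate activation scores above 10%, or exactly half above 10 with the replicate mean above 10; inconclusive = replicate mean below 10 yet half the replicates above 10; inactive = over half of replicates below 10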;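 note: wells of about 30 µL received 50 nL stock; many hits fall short of the cut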
Calb FLC – affects C. albicans growth with fluconazole. C. albicans CaCi-2 (fluconazole-resistant clinical isolate) + fluconazole, Alamar Blue growth, 48 h. growth inhibition, % (concentration not given with the values). actives 0.57% (n = 300,000);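 active = most replicates above 75%; inconclusive = exactly half above 75%; inactive = most below 75%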;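 note: all wells also contain fluconazole at 8 µg/ml as a sub-toxic cotreatment; 0% = median of DMSO wells and 100% = median of geldanamycin control wells; wells of about 8 µL received 7.5 nL stock; the first replicate is given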
Beta apoptosis – blocks beta cell apoptosis. protection from apoptosis, % (test concentration not listed). INS-1E cytokine-induced death, ATP luminescence, 48 h; percent of positive-control rescue, neutral wells zero. actives 0.8% (n = 300,000). AID 435005;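 active = all replicates at 75% or more, or half of them and the mean; inconclusive = half reach 75% but not the mean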;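 note: 0% = cytokine-treated negative control wells and 100% = positive control rescue; higher means more ATP so stronger rescue from cytokine killing; wells of about 40 µL received 100 nL stock; the first replicate is given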
ALR H2O2 inh – blocks human ALR sulfhydryl oxidase activity; P55789; purified ALR, DTT oxidation, H2O2 HRP-luminol luminescence; inhibition, % (no concentration beside the values); actives 3.8% (n = 290,000);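 active = mean and each replicate at 75% or more; inconclusive = only one of the two met; inactive = neither met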;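 note: stock transfer was 7.5 nL into about 7.5 µL; 0% = neutral wells and 100% = wells with inactivated enzyme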
rRNA inh HTS – inhibitors of bacterial rRNA selective over humanized ribosomes. GFP signal change (wild-type ribosome), % (no concentration beside the values). actives 1.6% (n = 350,000). AID 720706. E. coli WT GFP vs humanized-ribosome RFP mutants, fluorescence, 24 h; active compounds read low; DMSO median 0, no signal -100;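 active = significant combined selectivity score with lowered wild-type GFP, culture density cut under 30%, mutant RFP and density less affected; inactive = any of these conditions unmet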; note: one replicate is shown; some compounds called inactive have numbers as strong as hits
T cruzi repl – T. cruzi replication inhibition. T. cruzi beta-gal in NIH3T3, luminescence, 90 h. inhibition, % (test concentration not listed). actives 1.4% (n = 300,000). AID 1885;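 active = mean inhibition across valid replicates above about 55%, limit read from the data; inconclusive = mean below that limit but half or more replicates reach it; inactive = mean below it, under half of replicates reach it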;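 note: signal also drops with host cell toxicity which is not excluded here; 0% = plate median of DMSO wells and 100% = zero luminescence signal; higher percent means less beta-gal luminescence so fewer parasites; stock transfer was 50 nL into about 50 µL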
Beta2AR agonist – agonists of human beta-2 adrenergic receptor inducing internalization. Am2.2-beta2AR cells, FAP receptor internalization, flow cytometry; reference of the scale not given here. response, % (concentration not given with the values). actives 0.43% (n = 340,000). P07550;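 active = response above a set limit, near 3 SD of response in nonfluorescent compounds, cut at about 42% in these data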;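 note: stock transfer was 100 nL into about 11 µL; a reference agonist was the positive control; negative values mostly stem from fluorescent compounds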
LANA-H2B inh – blocks KSHV LANA binding to histone H2A/H2B | Q9QR71 | cell-free LANA-H2A/H2B peptide, fluorescence polarization | inhibition, % (test concentration not listed) | actives 0.6% (n = 320,000) | AID 2629; in the data active = inhibition mostly above about 10%, no sharp cut-off; inactive = mostly below about 6.7%;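 note: stock transfer was 7.5 nL into about 10 µL; 0% = median of vehicle wells and 100% = median of positive control wells; one replicate is shown; the record names a cut of 25% in any replicate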
Target sequence (Q9QR71 whole entry, looked up): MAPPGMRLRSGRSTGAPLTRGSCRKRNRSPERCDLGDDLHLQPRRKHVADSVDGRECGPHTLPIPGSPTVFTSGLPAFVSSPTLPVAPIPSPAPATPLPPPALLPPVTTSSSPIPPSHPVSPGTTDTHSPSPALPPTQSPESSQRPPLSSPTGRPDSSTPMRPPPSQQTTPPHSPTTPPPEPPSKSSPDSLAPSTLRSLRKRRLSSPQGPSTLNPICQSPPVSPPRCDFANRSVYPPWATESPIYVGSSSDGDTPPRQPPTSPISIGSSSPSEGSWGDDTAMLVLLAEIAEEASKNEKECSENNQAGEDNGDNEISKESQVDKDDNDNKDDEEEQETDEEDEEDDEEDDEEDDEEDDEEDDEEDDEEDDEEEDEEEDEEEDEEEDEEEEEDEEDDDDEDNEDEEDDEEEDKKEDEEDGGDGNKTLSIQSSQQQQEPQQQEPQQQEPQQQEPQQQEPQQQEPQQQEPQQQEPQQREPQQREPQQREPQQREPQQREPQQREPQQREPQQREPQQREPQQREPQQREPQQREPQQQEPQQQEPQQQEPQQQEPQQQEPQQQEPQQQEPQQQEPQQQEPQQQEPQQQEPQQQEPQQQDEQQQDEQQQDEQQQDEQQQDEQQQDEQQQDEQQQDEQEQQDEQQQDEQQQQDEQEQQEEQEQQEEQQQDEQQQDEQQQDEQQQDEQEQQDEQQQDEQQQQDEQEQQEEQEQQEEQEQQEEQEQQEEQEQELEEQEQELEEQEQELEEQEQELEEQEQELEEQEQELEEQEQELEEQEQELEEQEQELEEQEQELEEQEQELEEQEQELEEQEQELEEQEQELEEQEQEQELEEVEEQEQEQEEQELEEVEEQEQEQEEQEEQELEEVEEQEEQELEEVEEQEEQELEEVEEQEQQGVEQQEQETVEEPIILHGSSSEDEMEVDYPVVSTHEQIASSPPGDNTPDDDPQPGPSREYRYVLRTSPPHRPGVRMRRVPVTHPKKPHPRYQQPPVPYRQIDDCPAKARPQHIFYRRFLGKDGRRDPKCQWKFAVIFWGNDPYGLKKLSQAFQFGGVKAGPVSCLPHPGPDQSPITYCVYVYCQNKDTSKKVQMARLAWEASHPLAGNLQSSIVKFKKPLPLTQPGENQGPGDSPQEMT
rRNA inh HTS OD600 – further read-out of rRNA inh HTS, marked with its call; OD600 change, %; measured here: OD600 growth;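 optical density of the mix in the first replicate; 0 = DMSO median and -100 = no signal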
rRNA inh HTS RFP – further read-out of rRNA inh HTS, marked with its call; RFP signal change, %; measured here: RFP humanized mutant strains;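 first replicate; 0 = DMSO median and -100 = no signal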
Numbers without * were called inactive; ? = inconclusive; . = not tested or not shown; & = joins results of further samples. Not all compounds are listed; the hit share may differ from the screen's.

SMILES	A1 inh	Calb FLC	Beta apoptosis	ALR H2O2 inh	rRNA inh HTS	rRNA inh HTS OD600	rRNA inh HTS RFP	T cruzi repl	Beta2AR agonist	LANA-H2B inh
O=C(NCCCl)c1ccc(OCc2ccccc2)cc1Cl	-0.7	-1	1	-29	-11	3	16	-14	-6	-0.2
CSc1ccc(Cl)c(C(=O)OCC(=O)NCC(C)C)c1	0.7	-22	-3	-5	.	.	.	-8	1	0.6
Cn1c2c(c(=O)n(C)c1=O)C1(C(=O)Nc3ccccc31)C(C#N)=C(N)O2 (stereo unspecified)	-0.7	-8	-4	.	.	.	.	-19	7	3.0
CN(Cc1ccco1)C(=O)CN1C(=O)NC2(CCCCC2)C1=O	1.0	.	-7	.	11	3	2.6	.	-2	-5.2
CCN(c1ccccc1)S(=O)(=O)c1ccc2[nH]cc(C(=O)N3CCOCC3)c(=O)c2c1	0.3	.	-3	-22	.	.	.	-9	-1	-2.0
Cc1cccc(N2CCN(C(=O)c3cccc(N4C(=O)C5C6C=CC(C6)C5C4=O)c3)CC2C)c1 (stereo unspecified)	2.6	-4	-6	25	3	-19	-3.6	-4	2	-5.4
O=C(CSc1nncn1-c1ccccc1)Nc1cc(Cl)cc(Cl)c1	-0.4	44	-2	-2	10	-5	-3.0	-9	2	-4.1
COc1ccccc1COCC(O)CNCCc1ccc(C(F)(F)F)cc1 (stereo unspecified)	-1.0	-4	10	.	-9	-22	1.5	50	-6	6.3
O=C(Nn1cnnc1)c1cc(-c2ccccn2)nc2ccccc12	-0.2	-8	-3	-20	.	.	.	-7	-4	4.2
O=C(Cc1c(Cl)cccc1Cl)NC1CC1	0.3	1	-1	-2	1	8	-5.9	2	-5	-6.7
CC(C)(CO)NC(=O)c1ccc2nc(Cc3cccc(Cl)c3)oc2c1	-1.2	4	.	.	-2	-6	5.6	-1	-4	-0.7
CCN(CC)CCN(Cc1cc2cc(C)cc(C)c2[nH]c1=O)C(=S)NCc1ccco1	0.1	-4	0	-8	7	10	3.2	27	32	-0.6
O=C(NCc1ccc(Cl)cc1)[C@@H]1CCCN1S(=O)(=O)c1ccc(Cl)cc1	0.8	.	-3	.	-16	-36	-1.3	.	-2	-0.9
CCCOc1ccc(C2C(=O)N(C3CCCCC3)CC(=O)N2CCCOCC)cc1OC (stereo unspecified)	-0.4	-3	0	-8	.	.	.	-1	1	3.7
CC1N=C2c3ccccc3N=C(SCc3cc(=O)n4cc(Cl)ccc4n3)N2C1=O (stereo unspecified)	-1.8	0	-17	12	.	.	.	7	-15	-1.8
Cc1ccc(C(C)C)c(OCCn2ccnc2C)c1	0.4	1	.	12	-1	-3	-0.3	1	1	-0.2
CC1CCN(c2ccccc2NC(=O)c2cc3ccccc3o2)CC1	-1.0	-5	5	4	5	20	2.8	19	6	1.9
Cc1ccc(S(=O)(=O)N2CCN(C(=O)c3ccc4ccccc4n3)CC2)c(C)c1	-0.3	.	5	.	.	.	.	.	6	-3.2
COCCN(C(=O)COC(=O)c1cccnc1SC)c1c(N)n(Cc2ccccc2)c(=O)[nH]c1=O	0.7	5	-6	-17	3	7	-2.2	-1	5	-5.6
Cc1nc(CC(=O)c2c(C)cc(O)cc2O)cs1	-0.6	7	1	-3	.	.	.	-6	2	-0.3
CN(Cc1c(F)cccc1Cl)C(=O)CCc1c[nH]c2ccccc12	0.3	-19	-10	8	-6	-30	2.8	5	3	-3.9
O=C(/C=C/c1cccc(OCc2ccccc2)c1)c1cccnc1	-1.0	24	4	-4	.	.	.	14	-8	4.0
C[C@H](CO)N1C[C@H](C)[C@@H](CN(C)S(=O)(=O)c2ccc(F)cc2)Oc2ccc(NS(=O)(=O)c3cccs3)cc2C1=O	-0.9	.	4	-4	2&-3	3&-7	1.3&2.6	.	-1	-3.5
CC(C)CCOc1ccc(/C=N/N2C(=O)CSC2=S)cc1	0.6	8	.	10	0	-1	1.6	-14	-13	-2.5
O=S(=O)(c1cccc(-c2nnc(SC(F)F)n2-c2ccccc2)c1)N1CCCCC1	0.5	2	-4	-4	.	.	.	5	11	-4.1
Cc1cc(NCCCCO)n2c(nc3ccccc32)c1C#N	-0.6	-15	9	-9	2	13	-0.4	4	-16	0.6
CN(C(=O)C1CCC1C(=O)O)c1nc(-c2ccc(Cl)s2)cs1 (stereo unspecified)	0.8	-5	-7	-17	-38	-37	-7.9	-22	0	-1.0
COc1cc(/C=N/NC(=O)c2ccc(N3CCCC3=O)cc2)ccc1O	-0.9	0	0	28	-14	-4	2.0	-9	29	0.0
CCN(Cc1ccccc1)C(c1ccc(C)cc1)c1nnnn1C(C)(C)C (stereo unspecified)	0.6	26	21	12	.	.	.	32	7	0.9
CC(C)(CC(=O)O)CC(=O)Nc1ccc2c(c1)ncn2CCc1ccccc1	0.6	-3	-6	0	11	7	-0.2	3	-4	1.8
CCn1c(SCC(=O)Nc2oc(-c3ccccc3)c(-c3ccccc3)c2C#N)nnc1-c1ccncc1	0.2	0	-1	29	.	.	.	13	-2	0.7
COc1ccccc1NC(=O)C(C)OC(=O)c1cc2ccccc2[nH]1 (stereo unspecified)	0.1	.	13	-5	-37	-66	-1.8	.	-189	0.6
Cc1ccc(S(=O)(=O)N(C(=O)c2ccncc2)c2ccc(OC(=O)c3ccncc3)c3ccccc23)c(C)c1	0.3	-1	-29	-30	.	.	.	.	5	0.5
CCCc1cc(=O)[nH]c(SCc2cccnc2)n1	-0.2	-4	1	97*	.	.	.	.	-1	-0.2
COc1cccc(CN2C(=O)N(C(C)C)C(N(O)C(=O)NC(C)C)C2(C)C)c1OC (stereo unspecified)	-0.1	4	2	0	.	.	.	6	-3	-1.6
Cc1ccc(N(CC(=O)NCCSc2ccccn2)S(=O)(=O)c2ccc(F)cc2)cc1	0.6	?	-10	4	19	16	1.4	12	17	-3.7
COCCNC(=O)C1CC2Cn3c(nc4cc(C)c(C)cc43)C2N1C (stereo unspecified)	-0.7	4	3	.	1	5	-5.2	-17	-1	-7.9
Cn1c(=O)cc(SCC(=O)N2CCCC2)c2ccccc21	0.2	11	-7	-5	.	.	.	1	-7	0.6
O=C(O)c1ccccc1NS(=O)(=O)c1cccc2nsnc12	-0.7	28	-2	-3	20	11	2.0	-12	9	-0.5
S=C1NCN(Cc2ccco2)CN1c1cccc2ccccc12	-0.2	29	-6	.	.	.	.	.	2	-1.4
O=C(C1CCCO1)N1CCN(C(=S)Nc2ccc(Br)cc2)CC1 (stereo unspecified)	0.3	-5	.	-8	1	4	2.6	6	-2	-0.7
CC(=O)NC(Cc1ccc(F)cc1)C(=O)NC1CCN(C(=O)Nc2ccccc2C)CC1 (stereo unspecified)	-0.4	0	.	-14	.	.	.	0	6	0.9
O=C(CSc1nc2ccccc2n1Cc1ccc(Cl)cc1)N/N=C/c1ccc(C(=O)O)cc1	-0.2	2	3	-5	18	19	0.2	3	-2	-0.8
O=C(O)CCS(=O)(=O)Cc1cccc(Cl)c1	1.2	4	2	-2	15	7	-6.0	-16	1	-1.7
CC(=O)Nc1ccc(NC(=O)C(C)OC(=O)c2cccs2)cc1 (stereo unspecified)	1.4	.	3	.	3	1	2.1	.	4	-1.0
N#C/C(=C(/O)CCl)c1nc2c(s1)CCc1ccccc1-2	-0.2	29	-2	10	-30	-52	14	6	4	-0.9
Cc1noc(C)c1CSCC(=O)Nc1cc(C(F)(F)F)ccc1N1CCCCC1	-0.3	-1	.	-3	2	-5	-1.2	37	6	5.8
Cn1c(Cn2nnc3ccccc32)nnc1SCC(=O)Nc1ccc2c(c1)OCO2	0.5	-4	4	-10	6	2	1.6	-12	6	-3.1
CC(C)CCNC(=O)C(=O)NC1CCCC1	0.1	-9	6	6	-4	6	-2.4	-8	0	1.8
Cc1nnc(SCC(=O)N(C)c2ccccc2)n1Cc1ccccc1	0.3	1	-5	4	13	16	0.2	-4	-3	-3.7
O=C(Nc1nccs1)c1sc2ccccc2c1Cl	-4.4	-33	20	-4	.	.	.	6	-12	-5.4
CCOCCCNCc1cccc(OCc2ccc(F)cc2)c1	0.3	-27	4	.	.	.	.	24	-2	5.4
O=c1c2ccccc2n2c(=S)[nH]nc2n1-c1ccccc1	-1.1	43	3	48	-7	-1	-0.8	-13	-9	2.6
Cc1ncc([N+](=O)[O-])n1CC(=O)NC1CCCC1	0.7	-8	-2	1	-4	2	-0.1	-2	0	0.5
C/C(=N\N=C1\NC(=O)C(CC(=O)O)S1)c1ccccn1 (stereo unspecified)	-0.5	54	-1	-7	-15	-36	1.5	-24	-8	4.4
CCCN(c1ccc(OCC)cc1)S(=O)(=O)c1ccc2c(c1)NC(=O)CO2	.	-1	.	-25	-23	-21	0.7	9	4	.
CCCC(=O)c1c(NCCO)cc(C)oc1=O	0.7	-4	3	.	0	6	-3.0	-2	-2	0.5
CCO[C@@H]1OC(C(=O)NC2CC2)=C[C@H](c2coc3ccccc3c2=O)[C@H]1CCCO	-0.4	12	-2	-36	.	.	.	2	-13	0.1
Cc1ccc(C)c(NC2CCCCC2NS(=O)(=O)c2ccccc2)c1 (stereo unspecified)	1.2	8	6	57	4	7	-3.3	-7	14	-1.8
Cc1c(NC(=O)c2cccs2)c(=O)n(-c2ccccc2)n1C	2.1	6	-1	.	4	8	-0.6	3	9	-5.4

(list continues)
SMILES	A1 inh	Calb FLC	Beta apoptosis	ALR H2O2 inh	rRNA inh HTS	rRNA inh HTS OD600	rRNA inh HTS RFP	T cruzi repl	Beta2AR agonist	LANA-H2B inh
Cc1occc1C(=O)NCCCCNC(=O)c1ccoc1C	-0.2	0	-4	.	.	.	.	-9	1	0.1
CC(C)(C)n1c(=O)[nH]c2c(c1=O)CCC2	0.3	-7	-2	0	.	.	.	-14	0	24*
CCCCOc1cccc(-c2cc(C(=O)NNC(=S)NCC)c3ccccc3n2)c1	-2.5	32	24	-2	.	.	.	-4	-12	0.6
O=C(NCc1cccnc1)c1cccc(S(=O)(=O)N2CCOCC2)c1	0.4	-2	-4	-5	5	3	-2.2	-4	-7	-1.1
CC1CCCCN1CC(=O)c1c[nH]c2ccccc12 (stereo unspecified)	0.3	-1	-3	-6	11	11	3.0	-8	-1	4.8
Cc1cc(C(=O)CN2CC(C)OC(C)C2)c(C)n1-c1ccccc1 (stereo unspecified)	0.8	-8	1	0	0	3	-2.1	0	1	-4.5
COc1ccccc1OCCC(=O)NCc1ccc2c(c1)OCO2	0.7	2	-7	-7	1	7	-1.6	-6	1	-1.3
COc1cc(NC(=O)CN(C)S(=O)(=O)c2cccs2)cc(OC)c1	-0.2	0	-3	-18	3	-2	-0.1	-2	5	-0.4
CCc1ccc(C(=O)C(C)OC(=O)Cc2n[nH]c(=O)c3ccccc23)cc1 (stereo unspecified)	-0.5	-9	16	0	-28	-32	-6.3	-9	5	-4.4
COc1c(C)cc(S(=O)(=O)N2CCOCC2)c(C)c1C	0.0	0	1	2	2	0	2.6	2	5	-1.9
